From PubChem
GIV-Gai inh = inhibitors of GIV peptide binding to Galpha-i3, primary screen, biochemical, fluorescence polarization, FITC-GIV GBA peptide, rat Galphai3 | AID 1224905, 2016 | 90 min; active compounds read low; scaled: aluminum fluoride 0%, vehicle 100% | percent of control (FP), % (concentration not given with the values) | actives 0.42% (n = 210,000);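 active = replicate mean at 85% of control or lower, very high polarization wells dropped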;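 also: wells of about 15 µL received 100 nL stock; the first replicate is given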
Target sequence (P08753 whole entry, looked up): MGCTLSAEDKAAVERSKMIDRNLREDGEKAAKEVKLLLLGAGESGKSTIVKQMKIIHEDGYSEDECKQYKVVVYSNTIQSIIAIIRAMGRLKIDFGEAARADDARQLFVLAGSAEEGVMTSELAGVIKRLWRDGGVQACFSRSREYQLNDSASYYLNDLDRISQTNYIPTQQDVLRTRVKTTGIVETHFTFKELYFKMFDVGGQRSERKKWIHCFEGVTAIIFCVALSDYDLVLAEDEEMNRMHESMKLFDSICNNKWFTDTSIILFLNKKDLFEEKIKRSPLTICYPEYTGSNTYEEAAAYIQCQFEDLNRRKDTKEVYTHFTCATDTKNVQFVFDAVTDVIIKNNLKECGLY
HCMV UL50-53 inh = inhibitors of HCMV UL50-UL53 interaction, biochemical, HTRF; normalized percent inhibition; inhibition, % (test concentration not listed); actives 0.15% (n = 190,000);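 active = both replicates at 50% or more, plus weaker picks with an unusually low signal ratio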;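 also: stock transfer was 100 nL into about 20 µL; 0% = negative control wells and 100% = wells with untagged competitor protein; inactives centre near -12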
Sa growth inh = S. aureus growth inhibition at 42 and 30 °C, primary screen, LtaS inhibitor project, RN4220, two temperatures | AID 720641, 2013 | relative growth, % (test concentration not listed) | actives 0.53% (n = 170,000) | OD600, 20 h, 42 °C; active compounds read low;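 active = growth at 42 °C up to 50% and 20 or more points under that at 30 °C, or under 10% at both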;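 also: 300 nL library stock went into each well; scaled to the means of positive and negative controls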
Sa growth inh second temp = recorded beside Sa growth inh, whose call it bears; relative growth, %; measured here: growth at 30 °C;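 optical density after 20 h as mean of two plates; 100% = untreated growth and lower means inhibition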
Starred values were filed as active, the others as inactive; / = no result given; & = joins results of further samples.

SMILES	GIV-Gai inh	HCMV UL50-53 inh	Sa growth inh	Sa growth inh second temp
CC(C)N(Cc1nc(-c2ccccc2)no1)C(=O)C(C)(C)C	100	/	103	96
O=C(O)c1ccc(-n2cncn2)cc1	/	-3	98	92
O=C(CCCCl)N1CCc2[nH]c3ccccc3c2C1	101	6	106	90
COc1ccc(C(=O)COC(=O)C2CCC(=O)N2)cc1 (stereo unspecified)	/	-6	99	87
CC(c1ccccc1)N1C(=O)NC(C(F)(F)F)(C(F)(F)F)C2=C1CC(C)(C)CC2=O (stereo unspecified)	104	/	87	90
CC(Sc1ccc(Br)cc1)C(N)=O (stereo unspecified)	/	-7	81	88
Cc1ncc(CC(=O)n2cc(C(=O)c3cc(F)ccc3O)cn2)s1	/	6	92	96
NC(=O)c1ccccc1O	/	-44	86	85
CCOc1ccc(C(CNC(=O)C(CC)c2ccccc2)N2CCOCC2)cc1OC (stereo unspecified)	/	-3	90	96
CC1=C(CC(=O)O)c2cc(F)ccc2/C1=C\c1ccc(S(C)(=O)=O)cc1	106	-133	/	/

The list goes on, overlapping the part above by five compounds.
SMILES	GIV-Gai inh	HCMV UL50-53 inh	Sa growth inh	Sa growth inh second temp
CC(Sc1ccc(Br)cc1)C(N)=O (stereo unspecified)	/	-7	81	88
Cc1ncc(CC(=O)n2cc(C(=O)c3cc(F)ccc3O)cn2)s1	/	6	92	96
NC(=O)c1ccccc1O	/	-44	86	85
CCOc1ccc(C(CNC(=O)C(CC)c2ccccc2)N2CCOCC2)cc1OC (stereo unspecified)	/	-3	90	96
CC1=C(CC(=O)O)c2cc(F)ccc2/C1=C\c1ccc(S(C)(=O)=O)cc1	106	-133	/	/
O=C(O)c1cn(C2CC2)c2cc(N3CCN(C(=S)S)CC3)c(F)cc2c1=O	/	-16	-0.9*	-0.9*
CCn1c(Cn2cccn2)nc2cc(NC(=O)c3ccccc3C)ccc21	95	-11	/	/
O=C(OCCN1C(=O)c2ccccc2C1=O)c1cccs1	99	-25	90	100
CC1(C)C2CCC1C(O)C2O (stereo unspecified)	108	13	102	98
Cc1ccc(SCc2cc(=O)oc3cc(O)ccc23)cc1	103	-14	72	71
O=C(CN1c2cccc3cccc(c23)S1(=O)=O)NC1CC1	/	-32	112	102
CCOc1ccc(N2CC(NC(=O)C3CCCCC3)CC2=O)cc1 (stereo unspecified)	99	/	110	82
Cc1nc2ncccc2c(=O)n1-c1cccc(NC(=O)c2ccccc2Cl)c1	103	-15	/	/
COC(=O)C(Cc1ccccc1)NC(=O)C1CC(=O)N(c2cccc(C)c2C)C1 (stereo unspecified)	/	-36	84	81
NC(=O)c1ccccc1NC(=O)COCC(=O)O	103	2	104	89

A few values from the results shown:
GIV-Gai inh with `CCOc1ccc(N2CC(NC(=O)C3CCCCC3)CC2=O)cc1` (stereo unspecified) : 99
Sa growth inh second temp with `O=C(CN1c2cccc3cccc(c23)S1(=O)=O)NC1CC1` : 102

The main list resumes, repeating the two entries before the break.
SMILES	GIV-Gai inh	HCMV UL50-53 inh	Sa growth inh	Sa growth inh second temp
COC(=O)C(Cc1ccccc1)NC(=O)C1CC(=O)N(c2cccc(C)c2C)C1 (stereo unspecified)	/	-36	84	81
NC(=O)c1ccccc1NC(=O)COCC(=O)O	103	2	104	89
O=C1CCCC2=C1C(c1ccc(Cl)cc1)N=C(Nc1nc3ccccc3o1)N2 (stereo unspecified)	101	-3	100	97
CCC(C)NC(=O)c1cccc2c1C(=O)N(CC1CCCO1)C2 (stereo unspecified)	104	/	99	94
CCSc1nn(CC(=O)Nc2ccc(F)cc2)c(N)c1S(=O)(=O)c1ccccc1	99	-22	/	/
Cc1nn(-c2ccc(Cl)cc2)c2sc(C(=O)N3C(C)CCCC3C)cc12 (stereo unspecified)	/	-25	102	93
Cc1cc(-c2ccc(S(=O)(=O)N3CCC4(CC3)OCCO4)s2)n[nH]1	102	4	100	100
CCC(=O)NNc1ncnc2c1cnn2-c1ccc(C)c(Cl)c1	100	/	103	88
CCOC(=O)c1c(NC(=O)c2cc(=O)c3c(C)cc(C)cc3o2)sc(C)c1C	102	-18	107	87
C=CCOc1ccc(CNCc2cccnc2)cc1OC	106	-2	96	88
Cc1ccc2[nH]c(=O)c3cc(C(=O)NC4CCC(C)CC4)sc3c2c1 (stereo unspecified)	100	-13	93	82
O=C(CC1OC(=O)c2ccccc21)Nc1ccccc1N1CCOCC1 (stereo unspecified)	/	-14	90	86
CCOc1ccc(C2C(C(=O)Nc3ccc(OC)cc3)=C(C)Nc3nc(CCCO)nn32)cc1 (stereo unspecified)	103	/	105	96
Clc1cc2c(cc1C=Nc1ccc(N3CCOCC3)cc1)OCO2	102	-49	102	92
CC1CCN(c2cc(N3CCC4(CC3)OCCO4)c3noc4c3c2C(=O)c2ccccc2-4)CC1	115	-32	18	4
Cc1ccc(OCCn2cccc2/C=C2\C(=N)N3N=C(N4CCCC4)SC3=NC2=O)c(C)c1	104	-25	91	88
CCn1cnc2c1c(=O)n(CC(=O)Nc1cccc(OC)c1)c(=O)n2Cc1ccccc1	/	16	100	75
CCCN(CCC)CCCNC(=O)c1cc2c(=O)[nH]c3ccccc3c2n1C	104	3	106	95
CCCn1c(=O)c2ccc(C(=O)NC(C)C)cc2n2c(=O)n(CC(=O)c3cccc(Cl)c3)nc12	102	-12	/	/
CCc1ccc(-c2n[nH]c(=O)c3ccccc23)cc1	108	-3	95	93
C=CCn1c2ccccc2c2nnc(SCC(=O)NC(C)c3ccccc3)nc21 (stereo unspecified)	105	-6	85	90
Cc1ccc(S(=O)(=O)N2CCCCC2C(=O)N2CCCC3CCCCC32)cc1 (stereo unspecified)	/	-1	109	92
COc1ccccc1NC(=O)C1c2cc(OC)c(OC)cc2C(=O)N(C)C1c1cccnc1 (stereo unspecified)	102&99	-36&-24	77	78
CCOC(=O)c1nccn1CC(=O)N(C)c1ccccc1	100	/	86	91
Cc1noc(C)c1-c1nc(CSCc2ccc(Cl)cc2)no1	96	0	96	57
Cc1cc2oc(C(=O)Nc3c(C)n(C)n(-c4ccccc4)c3=O)cc(=O)c2cc1C	106	-28	99	88
CC1(C(=O)NC2CCCC2)CCC(=O)N1Cc1ccccc1 (stereo unspecified)	109	0	86	103
O=C(O)CCn1cnc2ccccc2c1=O	101	3	120	85
CCOC(=O)c1noc2ncnc(Nc3ccc(F)cc3F)c12	106	/	95	98
COCCCNc1nc2c(c(=O)n(C)c(=O)n2C)n1Cc1ccccc1	112	2	88	92
Cc1ccc2[nH]c(=O)c3cc(C(=O)O)sc3c2c1	97&109	-28&-73	103	88
Cc1ccccc1-n1cnnc1SCC(=O)Nc1ccc(S(=O)(=O)N2CCCC2)cc1	/	-21	88	89
O=C(C1CCN(S(=O)(=O)c2cccs2)CC1)N(c1ccccn1)C1CCCCC1	/	-7	85	94
Cc1cc(C(=O)OCC(=O)c2ccc(Br)s2)no1	/	-16	104	96
c1cn(-c2ccc(-c3nn[nH]n3)cc2)cn1	103	-1	/	/
Cc1cc(F)ccc1NC(=O)CCc1nnc2ccc(N3CCC4(CC3)OCCO4)nn12	108	13	98	105
O=c1c2[nH]c3ccccc3c2ncn1Cc1nc(-c2ccccc2)no1	98	-35	/	/
CCN1CCSc2ccc(C(=O)NC(C)C)cc21	95	/	94	89
CN1CCC(N(C)C(=O)c2cccc(S(=O)(=O)N3CCN(c4ccccc4)CC3)c2)CC1	/	2	99	91
COCCCNC(=O)CSc1nc2cc3c(cc2c(=O)n1CCCCCC(=O)NCCc1ccc(OC)c(OC)c1)OCO3	107	/	89	87
COc1ccc(NS(=O)(=O)Cc2ccccc2Cl)cn1	103	-1	107	77
COc1ccc(C(=O)ON2C(=O)CCC2=O)cc1	102	-4	96	91

Sorted by heavy-atom count (ascending): 4 of the compounds above.
SMILES	GIV-Gai inh	HCMV UL50-53 inh	Sa growth inh	Sa growth inh second temp
c1cn(-c2ccc(-c3nn[nH]n3)cc2)cn1	103	-1	/	/
CCN1CCSc2ccc(C(=O)NC(C)C)cc21	95	/	94	89
COc1ccc(NS(=O)(=O)Cc2ccccc2Cl)cn1	103	-1	107	77
Cc1cc(F)ccc1NC(=O)CCc1nnc2ccc(N3CCC4(CC3)OCCO4)nn12	108	13	98	105

Next results follow.
SMILES	GIV-Gai inh	HCMV UL50-53 inh	Sa growth inh	Sa growth inh second temp
CC1=C(C(=O)Nc2ccccn2)C(c2cccc(Cl)c2Cl)C2=C(CCCC2=O)N1 (stereo unspecified)	104	4	103	99
CCc1ccc(-n2c(SCc3nc(-c4cc(OC)ccc4OC)no3)nnc2-c2ccccc2)cc1	100	-34	101	83
C=CCn1c(=O)/c(=C/c2ccc(C)o2)s/c1=C(/C#N)C(=O)c1ccccc1	/	-34	96	91
c1cncc(-c2csc(-c3cccnc3)n2)c1	110	-76	92	79
CCOC(=O)c1c[nH]c2nc(C)ccc2c1=O	135	-52	102	67
O=C1CS(=O)(=O)C(c2ccccn2)N1c1ccc(C(F)(F)F)cc1 (stereo unspecified)	104	-9	123	82
CCOc1cccc(C2CC(=O)Nc3cc4c(cc32)OCCO4)c1 (stereo unspecified)	104	-11	109	89
CCc1nc(-c2cc(S(=O)(=O)NCC(=O)N3CCOCC3)c(C)s2)no1	100	-5	/	/
Cc1noc(C)c1C(=O)NNc1ccccc1C(F)(F)F	101	-22	94	90
Cc1ccc(-c2csc3ncnc(Nc4ccc(C(=O)O)cc4)c23)cc1	115	0	101	99
O=C(CN1C(=O)CSc2ccc(S(=O)(=O)N3CCCC3)cc21)NCc1ccccc1Cl	103	/	116	90
COc1ccccc1NC(=O)C1CCN(c2ncnc3c2nc2n3CCCCC2)CC1	107	/	110	86
CS(=O)(=O)CC(=O)c1ccc(Cl)c(Cl)c1	98	-21	/	/
N#C/C(=C\c1ccco1)S(=O)(=O)c1ccc(Cl)cc1	109	-29	88	52
O=C(CSC1=NCCc2ccccc21)c1ccc(-c2ccccc2)cc1	98	-65	81	70
O=C(O)CCC(=O)N1CCC(O)(c2ccc3c(c2)OCO3)CC1	102	-15	94	90
CCOC(=O)c1cc(C)nn1Cc1ccc(Cl)cc1	103	-7	87	86
COc1ccc(CN2CCCCCC2)cc1	103	0	109	91
C=CCn1cc(C(=O)N(C)CCCC)c(=O)c2cc(S(=O)(=O)N(CC)CC)ccc21	100	-15	108	90
Cc1noc2c1C(c1cccc(Br)c1)C1=C(CC(C)(C)CC1=O)N2 (stereo unspecified)	100	-6	/	/
CN1C(=O)C(=C(C#N)C#N)c2cc(Br)ccc21	102	9	76	68
O=C(Nc1cccc(-c2nc(-c3ccccc3)no2)c1)C1CC(=O)N(Cc2ccccc2)C1 (stereo unspecified)	108	-26	/	/
COC(=O)C(C)Oc1ccc2c(c1)oc(=O)c1ccccc12 (stereo unspecified)	109	-1	109	101
O=c1oc2ccccc2cc1-c1csc(NN=C2CCCC2)n1	99	-26	97	80

Compounds were not picked by outcome (roughly 0.79% active in at least one column).
